Screens deposited in PubChem BioAssay by National Center for Advancing Translational Sciences (NCATS).
SARS PLpro yeast – SARS-CoV PLP inhibition in yeast; AID 485353; 330,000 compounds, 0.19% hits; Potency, µM (top dose mostly 32.9 µM), without a hit: top-dose activity, positive = growth rescue; S. cerevisiae expressing SARS-CoV PLpro, growth rescue; control for the full effect not named in the record; active means well fitted rising curve with a large enough effect; inconclusive means small, poorly fitted or top-dose-only effect; inactive means no such curve, though single readings can be large or run the other way; also: 0% is about no effect; nearly all actives have a fitted effect of over 55% in size; growth read by luminescence after 48 h
Marburg entry inh – blocks Marburg virus binding to or entry into cells. Marburg virus pseudotyped entry inhibition, cell reporter; control for the full effect not named in the record; about a third of the inactives were read at about 46 µM. Potency, µM (series often up to 37.8 µM), inactives show at the top dose activity change, negative = inhibition, most hits filed as inhibitors. 300,000 compounds, 1.8% hits. AID 540276; active = well fitted inhibition curve with a large enough effect; inconclusive = small, poorly fitted or top-dose-only effect, or effect the other way; inactive = flat fitted curve, though single readings scatter; tested in HEK293 cells; about a fifth of its hits are not listed in these tables; also: % is scaled to controls: 0 for no effect and ±100 for the full control effect; luciferase read-out
StopGo reporter – FMDV 2A StopGo reporter, luciferase signal; Potency, µM (highest dose often 57.9 µM), inactives show top-dose signal change, negative = less light; human cells with a luciferase reporter of 2A StopGo recoding; control for the full effect not named in the record; 410,000 compounds, 1.2% hits; active = well fitted falling curve with a large enough effect; inconclusive = small, poorly fitted or top-dose-only effect; inactive = no such curve, though single readings can be large or run the other way; tested in HEK293T cells; also: % is scaled to controls: 0 for no effect and ±100 for the full control effect; nearly all actives have a fitted effect of over 45% in size; luciferase light after 4 h
RE007 growth inh – less growth of the S. pombe RE007 Vpr strain; S. pombe RE007 Vpr strain, BacTiter-Glo ATP luminescence, 24 h; control for the full effect not named in the record; Potency, µM (titrated, usually from 92.2 µM), for inactives: top-dose activity change, negative = less growth; 360,000 compounds, 0.21% hits; active = well fitted falling curve with a large enough effect; inconclusive = small, poorly fitted or top-dose-only effect; inactive = no such curve, though single readings can be large or run the other way;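 also: % is scaled to controls: 0 for no effect and ±100 for the full control effect; nearly all actives have a fitted effect of over 50% in size; the assay follows cell death caused by Vpr and the record does not say whether a fall means rescue or toxicity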
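Fission yeast strain RE007, carrying one chromosomally integrated HIV-1 vpr copy, was seeded at OD 0.01 in PMG+AL medium with 23 nL pinned compound. After 24 h at 30 °C and 99% humidity, viability was read by BacTiter-Glo luminescence.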
NS1 function inh – influenza NS1 inhibition; AID 2326; S. cerevisiae slowed by influenza A NS1, growth recovery by OD600; Potency, µM (doses to about 46.1 µM), for the others: at the highest dose activity, positive = more growth; 270,000 compounds, 0.4% hits; active means well fitted rising curve with a large enough effect; inconclusive means small, poorly fitted or top-dose-only effect; inactive means no such curve, though single readings can be large or run the other way; also: nearly all actives have a fitted effect of over 50% in size
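In this qHTS, NS1 from influenza A is expressed in budding yeast, where it slows growth. Cells are switched from glucose to 2% galactose medium (pH 6.0, -URA), treated with compound, and growth recovery is read at OD600.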
Cruzain noTriton – blocks cruzain activity in detergent-free assay. Potency, µM, inactives show max response, negative = inhibition, most hits filed as inhibitors. 200,000 compounds, 2.3% hits. P25779. purified cruzain, Z-FR-AMC fluorescence, no detergent;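 also: plate controls were enzyme without inhibitor for no effect and buffer without enzyme for full effect; nearly all actives have a fitted effect of over 40% in size; top concentration of the series not given in the record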
Target sequence (P25779 123-467 limits assumed): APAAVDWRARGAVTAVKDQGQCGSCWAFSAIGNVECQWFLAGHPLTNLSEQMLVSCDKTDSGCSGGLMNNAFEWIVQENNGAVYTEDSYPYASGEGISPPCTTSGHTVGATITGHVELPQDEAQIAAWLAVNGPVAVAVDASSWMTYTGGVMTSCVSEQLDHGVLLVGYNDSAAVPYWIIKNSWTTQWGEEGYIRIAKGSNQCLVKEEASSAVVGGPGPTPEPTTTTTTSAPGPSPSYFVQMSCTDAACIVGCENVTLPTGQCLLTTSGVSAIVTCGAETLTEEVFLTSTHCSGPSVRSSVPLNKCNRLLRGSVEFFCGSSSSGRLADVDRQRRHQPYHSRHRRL
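Purified cruzain at 1.5 nM, pre-incubated 15 min with compound at room temperature in 100 mM sodium acetate pH 5.5, 5 mM DTT, 0.00005% Triton X-100. Reaction started with 2 uM Z-FR-AMC; AMC fluorescence increase over 60 s gives rate.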
Cruzain inh Det – blocks cruzain activity in presence of Triton detergent. P25779. purified cruzain, Z-FR-AMC fluorescence, 0.01% Triton. Potency, µM, for inactives: max response, negative = inhibition, actives largely listed as inhibitors. 200,000 compounds, 0.43% hits. AID 1478;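 also: plate controls were neutral wells for no effect and buffer without enzyme for full effect; nearly all actives have a fitted effect of over 40% in size; top concentration of the series not given in the record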
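Cruzain (1.5 nM) preincubated 15 min at RT with compound in 100 mM sodium acetate pH 5.5, 5 mM DTT, 0.01% Triton X-100. Reaction started with 2 uM Z-FR-AMC; AMC fluorescence (ex 360/em 450 nm) change over 60 s gave rate.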
LASV entry inh – inhibitors of Lassa virus binding or cell entry; Lassa virus pseudotype entry inhibition, cell reporter; control for the full effect not named in the record; Potency, µM (top dose mostly 37.9 µM), inactives show at the top dose activity change, negative = inhibition, actives largely listed as inhibitors; 300,000 compounds, 1.2% hits; AID 540256; active means well fitted inhibition curve with a large enough effect; inconclusive means small, poorly fitted or top-dose-only effect, or effect the other way; inactive means flat fitted curve, though single readings scatter; tested in HEK293 cells; also: % is scaled to controls: 0 for no effect and ±100 for the full control effect; nearly all actives have a fitted effect of over 50% in size; luciferase read-out
Numbers without * were called inactive; ? = inconclusive; / = not tested or not shown; & = joins results of further samples; [ ] = remark or other dose. Unless noted, calls follow the shape of the dose curve; as a rule, active = well fitted curve in the direction sought with a large enough effect; inconclusive = small, poorly fitted or top-dose-only effect, or another doubt; inactive = no such curve, though single readings can be large; an effect the other way counts as inactive or inconclusive. Potency is read from the fitted curve at half-maximal effect.

SMILES	SARS PLpro yeast	Marburg entry inh	StopGo reporter	RE007 growth inh	NS1 function inh	Cruzain noTriton	Cruzain inh Det	LASV entry inh
COc1ccc(NC(=O)CCN2CCN(S(=O)(=O)c3ccc(C(C)C)cc3)CC2)cc1	-3%	-26%	/	3%	-10%	12%	1.2%	-23%
Cc1nc2c(c(=O)[nH]1)C(c1ccccc1Cl)c1c(c3ccccc3oc1=O)O2 (stereo unspecified)	0%	/	-7%	1%	11%	/	/	/
COc1ccc(-c2nnc(SCc3csc(N)n3)n2C)cc1	-2%	10%	5%	-10%	10%	-9%	6.5%	-1%
Cc1nc(NC(=O)c2csc3ccccc23)sc1C	-5%	?	-2%	-21%	-2%	-18%	-7.6%	?
COc1ccc(NC(=O)N2CCOCC2)cc1	2%	/	9%	1%	-2%	/	/	/
O=C(Cn1c(NCCO)nc2ccccc21)c1ccc(Cl)cc1	0%	13%	-21%	18%	-2%	-14%	7.1%	7%
COc1cccc(N(CC(=O)N2CCN(C)CC2)S(=O)(=O)c2ccc(C)cc2)c1	-1%	6%	7%	16%	-6%	-7%	9.2%	-15%
COC(=O)c1ccc(Cn2nnc3ccccc32)cc1	0%	-11%[46.1 µM]	-29%	5%	-46%	/	/	12%[46.1 µM]
COc1cccc(C(=O)N(Cc2nc(-c3cccc(C)c3)no2)C(C)C)c1OC	1%	?	0%	-4%	-32%	?	-7.3%	-14%
COc1ccc(/C=C2\SC(=O)N(CC(=O)Nc3ccc(O)cc3)C2=O)cc1OC	-1%	3%[46.1 µM]	8%	-13%	2%	/	/	-20%[46.1 µM]
CC(C)(C)C(=O)Nc1ccccc1C(=O)Nc1ccccn1	1%	-1%	?	-2%	-2%	0%	1.0%	16%
CCOC(=O)c1oc2cc(O)c(CC)cc2c(=O)c1-c1cscn1	4%	-1%[46.1 µM]	18%	-8%	/	/	/	-3%[46.1 µM]
CC(C)OCCCNC(=O)c1cn(C)c2ccc(S(=O)(=O)N(C)C3CCCCC3)cc2c1=O	-1%	-4%&-4%[46.1 µM]	23%&18%	5%	11%	-6%	-3.7%	?
CCn1cc(C(=O)N(C)c2ccc(C(C)C)cc2)c2cc(OC)c(OC)cc2c1=O	/	-13%[46.1 µM]	-12%	/	/	?	-1.5%	-19%[46.1 µM]
CCn1c(CNc2ccc(Cl)cc2)nnc1SCCN1CCCCC1	9%	-28%	-19%	0%	-1%	0%	-1.7%	-1%
O=C(NCCNS(=O)(=O)c1cccc(C(F)(F)F)c1)c1cc(OCC(F)(F)F)ccc1OCC(F)(F)F	2%	-24%	10%	15%	21%	-23%	4.1%	12%
CC(=O)N1N=C2C3CCN(CC3)C2C1c1ccccc1 (stereo unspecified)	-1%	15%	/	-3%	-4%	0%	3.8%	9%
COc1ccccc1NC(=O)c1ccc(CN2C(=O)C(C)=C(c3ccc(C)c(C)c3)S2(=O)=O)cc1	/	/	-20%	/	/	32µM*	-3.8%	-14%[46.1 µM]
NC(=O)C1CC2(C1)CC(C(N)=O)C2 (stereo unspecified)	/	18%	9%	-8%	/	/	/	14%
CCCN1C(=O)CC(C(=O)OC)=C1C	-3%	?	6%	0%	5%	2%	-1.7%	-2%
COc1ccc(N(CC(=O)Nc2ccc(F)c(F)c2)S(=O)(=O)c2c(C)n[nH]c2C)cc1	-4%	/	9%	3%	11%	/	/	/
C=CCNC(=O)c1nn2cccnc2c1Cl	1%	27%[46.1 µM]	-15%	3%	-2%	-4%	1.6%	18%
O=C(/C=C/c1cccs1)NC(=S)NNC(=O)Cc1cccs1	?	-23%	-16%	24%	14%	-18%	2.3%	-16%
O=C(NC1CCC(=O)N(CCSc2ccccc2)CC1)OCc1ccccc1 (stereo unspecified)	12%	/	-28%	4%	2%	/	/	/
CCOC(=O)N1CCN(Cc2nc(-c3ccccc3)no2)CC1	0%	?	35%[activator]	7%	-9%	8%	0.8%	8%
O=C(NCCCn1ccnc1)c1cc(-c2ccncc2)nc2ccccc12	-3%	?	-2%	-19%	/	/	/	4%
CCOc1ccccc1CNC(=O)C1CCN(C(=O)c2sccc2-n2cccc2)CC1	10%	?	-26%	-10%	10%	-5%	1.7%	-6%
O=C(Nc1ccccc1)c1cc2n(n1)C(C(F)(F)F)CC(C1CC1)N2 (stereo unspecified)	0%	0%	51%[activator]	-2%	-6%	/	/	22%
FC(F)(F)Oc1ccc(C2NCc3ccccc3-n3cccc32)cc1 (stereo unspecified)	7%	/	-11%	-9%	-4%	/	/	/
Cc1ccc(S(=O)(=O)N2CC(O)CC2C(=O)OCC(=O)c2ccccc2Cl)cc1C (stereo unspecified)	-12%	-5%	51%[activator]	0%	-2%	14%	-4.5%	19%
CCCc1[nH]nc2c1C(c1ccsc1)C(C#N)=C(N)O2 (stereo unspecified)	-1%	-18%[46.1 µM]	?	15%	-2%	/	/	7%
Cc1ccc(CNC(=O)c2cc3c(C)nc4ccccc4c3o2)cc1	-15%	/	13µM*	11%	-2%	?	-0.8%	/
CCOC(=O)c1ccc(NC(=O)c2ccc(CO)c(C(=O)NC3CCN(C(=O)OCC)CC3)c2)cc1	1%	9%	?	3%	5%	24%	5.3%	-11%
CCOC(=O)CSc1nc2ccccc2c(=O)n1-c1ccc(C)cn1	0%	-1%[46.1 µM]	-13%	13%	6%	/	/	14%
CCC(=O)N1CCc2cc(Br)cc(S(=O)(=O)N3CCCC(C(=O)Nc4ccc(C)c(F)c4)C3)c21 (stereo unspecified)	/	?	-9%	/	/	-4%	-2.7%	-25%[46.1 µM]
O=S(=O)(NCCSc1ccccn1)c1ccc(Cl)cc1	?	?	36%[activator]	-17%	-11%	-1%	-2.7%	-3%
COc1ccc(CNC(=O)C2CCN(C(=O)c3csc(Nc4ccc(C)cc4)n3)CC2)cc1	2%	?	25µM*	-7%	-6%	/	/	/
O=C(Nc1nc(-c2ccc(F)cc2)cs1)c1cccnc1	0%	-28%[46.1 µM]	6%	-16%	/	/	/	?
O=C(CSc1nnc(-c2ccc(Br)cc2)o1)N1CCN(C(=O)c2ccco2)CC1	-2%	-3%&4%	?	-4%	-10%	2%	2.4%	?
COC(=O)c1cc2c(N)c(C(=O)c3ccccc3)sc2nc1C(OC)OC	1%	13%[46.1 µM]	2%	8%	2%	/	/	2%[46.1 µM]
COc1cc2c(cc1OC)CN(Cc1cc(OC)c(O)c(OC)c1)CC2	-1%	-13%[46.1 µM]	2%	-8%	/	/	/	12%[46.1 µM]
Cc1cc(N2CCN(C(c3ccccc3)c3ccc(Cl)cc3)CC2)n2ncnc2n1 (stereo unspecified)	-12%	1%	-19%	22%	-99%	?	-4.6%	0%
COc1ccc(CCNC(=O)CN2C(=O)C3(OCCCO3)c3ccccc32)cc1OC	-2%	-1%	-15%	-9%	12%	2%	5.3%	14%
CCCCN(C)CCNC(=O)c1ccc2c(c1)NC(=O)C(N1CCCCC1)S2 (stereo unspecified)	6%	?	-30%	0%	1%	1%	2.3%	-24%
C#CC[N+](CC)(CC)CC#Cc1ccccc1	2%	9%	-16%	0%	-2%	/	/	2%
CCCCCCCNC(=O)C1CC(=O)N(C)C(=Nc2ccc(OC)cc2)S1 (stereo unspecified)	-18%	?	?	11%	3%	?	-4.2%	?
COc1ccc(NC(=O)C2CCCO2)c(OC)c1 (stereo unspecified)	2%	2%[46.1 µM]	6%	0%	7%	/	/	6%[46.1 µM]
O=C(COc1ccc2ccccc2c1)NCC(=O)N/N=C/c1ccco1	2%	1%	10%	19%	7%	-6%	2.0%	12%
COc1ccc(Cc2nc3ccc(C(=O)N(C)CC4COCCO4)cc3o2)cc1 (stereo unspecified)	-6%	14%[46.1 µM]	15%	4%	0%	/	/	-6%[46.1 µM]
O=C(NCc1ccccc1Cl)C1CCCN(c2ncnc3onc(-c4ccc(F)cc4)c23)C1 (stereo unspecified)	/	/	-10%	/	/	-10%	-4.6%	11%[46.1 µM]

Going on with the list:
SMILES	SARS PLpro yeast	Marburg entry inh	StopGo reporter	RE007 growth inh	NS1 function inh	Cruzain noTriton	Cruzain inh Det	LASV entry inh
Clc1cccc(N/N=C(\Cc2nc3ccccc3[nH]2)c2ccccc2)c1	-92%	?	?	51%	9%	?	-8.9%	1%
CCCCOCC1CN(c2ccccc2)C(=O)CS1 (stereo unspecified)	1%	-8%	-11%	-10%	?	2%	-4.3%	14%
CCOc1ccccc1N1CCN(S(=O)(=O)c2ccc(Cl)s2)CC1	-16%	-28%	/	13%	-41%	-10%	-2.7%	-30%
O=C(NCCc1ccccc1)c1cc(Sc2cccc(Cl)c2)nc2ccccc12	/	/	-9%	/	/	-2%	1.6%	22%[46.1 µM]
COc1ccc(NC(=O)C2CC(=O)N(C(C)C)C2)cc1 (stereo unspecified)	0%	3%	5%	13%	3%	?	3.2%	1%
CC(C)(C)C(=O)NC1=NN(c2c(Cl)cc(Cl)cc2Cl)C(=O)C1	0%	/	-11%	-9%	-4%	/	/	/
CC(=O)Oc1ccc(N2C(=O)C3C(C2=O)C2(C)C=CC3(C)O2)cc1 (stereo unspecified)	-56%	/	/	/	-228%	-11%	-2.0%	/
CC(C)Oc1ccc(/C=N/NC(=O)c2nnn(-c3nonc3N)c2CN(C)C2CCCCC2)cc1	1%	/	-22%	1%	-17%	/	/	/
Clc1ccccc1Cn1nc(-c2ccccc2)nc1-c1ccccc1	-18%	7%	-3%	-6%	-7%	-11%	-0.3%	-9%
O=C(NCCc1ccc(Cl)cc1)C1CCCN1C(=O)Nc1ccc(F)cc1 (stereo unspecified)	-1%	/	-3%	7%	15%	/	/	/
O=C(NCCC1=CCCCC1)C(=O)NCc1ccccc1Cl	2%	23%	21%	9%	5%	?	-0.1%	3%
COc1cc(NC(=O)CSc2ccc(-c3sc(-c4ccccc4)nc3C)nn2)cc(OC)c1	/	/	-8%	/	/	4%	-2.7%	-21%[46.1 µM]
